ALR H2O2 inh: human ALR oxidase inhibition via reduced H2O2. P55789. purified ALR, DTT oxidation, H2O2 HRP-luminol luminescence. inhibition, % (no concentration beside the values). actives 3.8% (n = 290,000);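 active = mean and each replicate at 75% or more; inconclusive = only one of the two met; inactive = neither met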;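 also: stock transfer was 7.5 nL into about 7.5 µL; 0% = neutral wells and 100% = wells with inactivated enzyme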
Calb FLC: C. albicans growth modulation with fluconazole; C. albicans CaCi-2 (fluconazole-resistant clinical isolate) + fluconazole, Alamar Blue growth, 48 h; growth inhibition, % (concentration not given with the values); actives 0.57% (n = 300,000);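 active = most replicates above 75%; inconclusive = exactly half above 75%; inactive = most below 75%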;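 also: all wells also contain fluconazole at 8 µg/ml as a sub-toxic cotreatment; 0% = median of DMSO wells and 100% = median of geldanamycin control wells; wells of about 8 µL received 7.5 nL stock; the first replicate is given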
Vif TR-FRET: inhibitors of Vif binding to APOBEC3G peptide, primary screen, biochemical, TR-FRET, GST-Vif 1-94, biotin-A3G peptide, dose response retest (AID 1117319) | TR-FRET GST-Vif / biotin-A3G peptide binding; higher % means a stronger effect; test concentration not given here; strong numbers were not always called active | inhibition, %, or IC50 in µM where a hit was titrated | actives 0.57% (n = 260,000);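 active = above the screen mean plus three standard deviations and confirmed in dose response; inconclusive = results disagree or hit not tested in dose response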;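 also: Vif residues 1-94 fused to GST binding biotinylated APOBEC3G peptide 110-148; 0% = full assay without inhibitor and 100% = GST in place of GST-Vif; retest series ran down from 100 µM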
Beta2AR agonist: activates human beta-2 adrenergic receptor causing internalization. actives 0.43% (n = 340,000). P07550. Am2.2-beta2AR cells, FAP receptor internalization, flow cytometry; reference of the scale not given here. AID 504454. response, % (test concentration not listed);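 active = response above a set limit, near 3 SD of response in nonfluorescent compounds, cut at about 42% in these data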;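 also: stock transfer was 100 nL into about 11 µL; a reference agonist was the positive control; negative values mostly stem from fluorescent compounds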
Target sequence (P07550 whole entry, looked up): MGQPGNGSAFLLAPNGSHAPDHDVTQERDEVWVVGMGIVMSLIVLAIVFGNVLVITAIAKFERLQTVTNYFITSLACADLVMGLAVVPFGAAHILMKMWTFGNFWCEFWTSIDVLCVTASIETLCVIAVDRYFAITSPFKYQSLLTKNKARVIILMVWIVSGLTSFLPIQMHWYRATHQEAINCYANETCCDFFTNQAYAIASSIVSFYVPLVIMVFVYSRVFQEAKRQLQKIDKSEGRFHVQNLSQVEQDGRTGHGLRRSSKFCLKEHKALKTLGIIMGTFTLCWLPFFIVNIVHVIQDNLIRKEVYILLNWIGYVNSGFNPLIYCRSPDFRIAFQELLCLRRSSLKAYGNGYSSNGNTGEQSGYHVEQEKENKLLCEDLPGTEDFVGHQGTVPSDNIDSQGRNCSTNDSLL
LANA-H2A inh: blocks KSHV LANA binding to histone H2A/H2B; inhibition, % (test concentration not listed); actives 0.6% (n = 320,000); cell-free LANA-H2A/H2B peptide, fluorescence polarization; in the data active = inhibition mostly above about 10%, no sharp cut-off; inactive = mostly below about 6.7%;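 also: stock transfer was 7.5 nL into about 10 µL; 0% = median of vehicle wells and 100% = median of positive control wells; one replicate is shown; the record names a cut of 25% in any replicate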
HNF4A DNA FP: change in binding of human HNF4 alpha to DNA; activity change, % at 10 µM; P41235; actives 0.3% (n = 360,000); AID 1224865; HNF4a-FITC DNA binding, fluorescence polarization, 1 h; in the data active = activity change above about 30%, passing the limit was not always enough;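 also: controls were the assay level and a saturating level of protein; the project sought stronger binding though the title names inhibitors; some compounds called inactive have numbers as strong as hits; positive values seem to mean higher polarization but the record does not say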
Target sequence (P41235 whole entry, looked up): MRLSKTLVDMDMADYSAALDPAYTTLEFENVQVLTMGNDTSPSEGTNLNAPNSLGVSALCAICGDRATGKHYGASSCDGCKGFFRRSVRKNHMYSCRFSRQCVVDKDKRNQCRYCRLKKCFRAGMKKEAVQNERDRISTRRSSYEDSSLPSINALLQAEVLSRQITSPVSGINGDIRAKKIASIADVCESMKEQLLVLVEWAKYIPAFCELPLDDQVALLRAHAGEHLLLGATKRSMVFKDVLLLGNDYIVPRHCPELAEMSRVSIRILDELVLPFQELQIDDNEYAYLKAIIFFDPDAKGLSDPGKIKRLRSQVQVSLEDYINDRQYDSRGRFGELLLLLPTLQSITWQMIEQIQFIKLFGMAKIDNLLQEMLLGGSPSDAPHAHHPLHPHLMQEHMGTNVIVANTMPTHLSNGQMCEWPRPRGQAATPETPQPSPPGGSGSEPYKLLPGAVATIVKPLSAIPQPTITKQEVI
RanGTP-Imp inh: disruptors of Ran-importin-beta complex formation – biochemical, FRET, CFP-Ran, YFP-importin-beta, homogeneous, primary screen; cell-free CFP-Ran/YFP-importin-beta FRET ratio; inhibition, % (test concentration not listed); actives 1.1% (n = 300,000);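 active = most replicates above 15%; inconclusive = exactly half above 15%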;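 also: 0% = DMSO wells and 100% = Ran loaded with GDP instead of GTP; wells of about 40 µL received 100 nL stock; the first replicate is given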
* marks the source's active call; other numbers are inactive results; i = inactive; ? = inconclusive; / = no result given; & = joins results of further samples.

no.	Molecule	Vif TR-FRET	RanGTP-Imp inh	Beta2AR agonist	Calb FLC
1	CC(C)CCn1cnc2c(cnn2-c2ccc(Cl)cc2)c1=O	-5%	-3.1	-14	?
2	CN(C)S(=O)(=O)N1CCN(CC(O)COc2ccc(C(=O)c3ccccc3)cc2)CC1 (stereo not given)	26%	1.9	-6	-8
3	COCCCn1c(=S)[nH]c2c(sc3ccccc32)c1=O	/	0.0	5	53
4	COc1cc(CC(=O)Nc2nccs2)cc(OC)c1OC	3%	3.8	1	106*
5	CCCCC(=O)N1CCN(c2nc3ccc(Cl)cc3s2)CC1	4%	-0.5	-6	0
6	COc1ccc(-c2nonc2NC(=O)c2oc3ccccc3c2C)cc1OC	/	3.8	4	19
7	CC1CN(C(=O)c2cc(F)c(F)cc2Cl)CC(C)O1 (stereo not given)	-10%	-1.2	2	-9
8	C=CC[n+]1c(C)csc1Nc1ccc(C(=O)O)cc1	15%	-1.9	-1	6
9	COc1ccc(S(=O)(=O)N2CCCC(C(=O)NCC3CCCO3)C2)cc1Cl (stereo not given)	/	2.1	1	3
10	COc1ccc(CN(C(=O)c2cnccn2)C(C(=O)Nc2ccc(F)cc2)c2ccccc2)cc1 (stereo not given)	11%	/	-4	/
11	CNC(=O)C(Sc1ccccc1)c1ccccc1 (stereo not given)	10%	0.3	4	-12
12	COc1ccccc1/C=N/Nc1nc(C)c(C(C)=O)s1	/	?	-13	13
13	CCOC(=O)c1cnn(-c2ccccc2)c1-n1cccc1C(=O)C(=O)N(C)C	-3%	-1.9	-1	-12
14	COc1ccc(CC(=O)N2CCN=C2SC)cc1	11%	2.0	9	-2
15	Cc1c(C)n(Cc2ccc(Cl)cc2)c2ccc(C(=O)NCCCN3CCOCC3)cc12	/	1.1	18	26

no.	HNF4A DNA FP	ALR H2O2 inh	LANA-H2A inh
1	4.1	-18	3.0
2	3.6	-4	-0.3
3	-3.9	66	1.2
4	-1.1	-6	2.5
5	0.6	-4	3.1
6	1.2	-21	-4.1
7	1.2	4	-0.6
8	-0.6	65	i
9	1.0	-27	-4.4
10	-2.4	-24	-1.4
11	-3.6	-1	-0.3
12	2.2	3	3.4
13	-1.8	-2	-0.4
14	-1.7	-2	-2.2
15	-9.3	-11	-14

Some of these compounds in order of count of non-hydrogen atoms, highest first:
no.	Molecule	Vif TR-FRET	RanGTP-Imp inh	Beta2AR agonist	Calb FLC
10	COc1ccc(CN(C(=O)c2cnccn2)C(C(=O)Nc2ccc(F)cc2)c2ccccc2)cc1 (stereo not given)	11%	/	-4	/
2	CN(C)S(=O)(=O)N1CCN(CC(O)COc2ccc(C(=O)c3ccccc3)cc2)CC1 (stereo not given)	26%	1.9	-6	-8
13	CCOC(=O)c1cnn(-c2ccccc2)c1-n1cccc1C(=O)C(=O)N(C)C	-3%	-1.9	-1	-12
1	CC(C)CCn1cnc2c(cnn2-c2ccc(Cl)cc2)c1=O	-5%	-3.1	-14	?
12	COc1ccccc1/C=N/Nc1nc(C)c(C(C)=O)s1	/	?	-13	13
8	C=CC[n+]1c(C)csc1Nc1ccc(C(=O)O)cc1	15%	-1.9	-1	6
14	COc1ccc(CC(=O)N2CCN=C2SC)cc1	11%	2.0	9	-2

no.	HNF4A DNA FP	ALR H2O2 inh	LANA-H2A inh
10	-2.4	-24	-1.4
2	3.6	-4	-0.3
13	-1.8	-2	-0.4
1	4.1	-18	3.0
12	2.2	3	3.4
8	-0.6	65	i
14	-1.7	-2	-2.2

Next section:
no.	Molecule	Vif TR-FRET	RanGTP-Imp inh	Beta2AR agonist	Calb FLC
16	O=C(NCC1CCCO1)C(c1ccco1)N(Cc1ccc(F)cc1)C(=O)CN1C(=O)c2ccccc2S1(=O)=O (stereo not given)	1%	4.3	4	-3
17	O=C(NNC(=O)c1cccc(S(=O)(=O)N2CCN(c3ccccc3)CC2)c1)c1ccc(Cl)cc1	/	1.8	-2	-7
18	COc1ccc(C2CC(c3c(O)cc(C)oc3=O)=NCCS2)c(OC)c1 (stereo not given)	10%	/	25	/
19	Cc1ccc(NC(=O)CCNS(=O)(=O)c2ccc3c(c2)CCC(=O)N3)cc1F	/	0.7	9	2
20	Cc1ccc(C)c(N2CCN(C(=O)c3ccc(NS(=O)(=O)c4c(C)noc4C)cc3)CC2)c1	1%	?	3	-2
21	C=CCNC(=O)c1onc(CSc2ccc(F)c(F)c2)c1C(=O)NCC=C	/	5.9	5	2
22	COc1ccccc1-n1c(SCC(N)=O)nnc1-c1ccc(S(=O)(=O)N2CCCCC2)cc1	4%&0%	-2.4	13	3
23	Cc1nn(CC(=O)OCC(=O)c2ccccc2)c(C)c1[N+](=O)[O-]	0%	/	1	/
24	O=C(c1cnn2cccnc12)N1CCN(c2ccccc2)CC1	18%	-2.6	-5	6
25	COc1ccc(CNn2c(C)nc3ccccc3c2=O)cc1	6%	0.9	-11	14
26	COc1ccc2cc(-c3ccccc3)c(=O)oc2c1	/	3.1	9	-3
27	COc1ccc(OCCC(=O)NCCN2CCOCC2)cc1	8%	-3.4	5	-4
28	O=C(N/N=C/c1ccc(Sc2ccccn2)o1)c1cc2ccccc2cc1O	15%	-2.7	3	-16
29	Cc1ccc(S(=O)(=O)N(C)c2cc(S(N)(=O)=O)c(C)cc2C)cc1	10%	/	-8	2
30	Clc1ccc(CSc2nccn2Cc2ccccc2)cc1	-1%	0.2	-8	-13

no.	HNF4A DNA FP	ALR H2O2 inh	LANA-H2A inh
16	0.2	-3	-2.8
17	-4.7	2	-1.9
18	4.9	37	5.5
19	1.6	-3	-4.2
20	-2.2	10	-2.4
21	-1.0	0	-2.4
22	-2.8	-1	-4.8
23	4.0	-5	-3.0
24	6.1	52	3.0
25	1.1	-4	-0.6
26	1.1	-4	-2.4
27	0.0	-3	-0.1
28	-0.9	-7	-0.9
29	0.1	-2	1.6
30	0.4	-1	1.6

Next part.
no.	Molecule	Vif TR-FRET	RanGTP-Imp inh	Beta2AR agonist	Calb FLC
31	O=C(c1ccc(F)cc1)c1cc2ccc(O)cc2oc1=O	/	37*	5	3
32	Cc1ccc(NC(=O)COC(=O)[C@H](C)N2C(=O)C3CC=CCC3C2=O)cc1S(=O)(=O)N(C)C (stereo not given in full)	/	1.1	3	-6
33	COc1cc(C(=O)Nc2nnc(CC(=O)NCc3ccccc3)s2)cc(OC)c1OC	-1%	-1.5	2	-8
34	COc1ccccc1NS(=O)(=O)c1ccc(-c2cnc(C3CC3)o2)cc1	-2%	5.0	21	8
35	O=C(N/C=C\c1ccccc1)NCc1ccc(Cl)cc1	1%	4.3	6	5
36	Cn1c(SCCOc2ccc(F)cc2)nnc1-c1ccncc1	-1%	-3.2	-1	4
37	O=C(NCC(c1ccco1)N1CCCC1)c1cn(Cc2ccccc2)nc1-c1ccccc1 (stereo not given)	12%	/	-5	/
38	O=C(NC(=S)Nc1ccccc1N1CCCC1)c1cccc(F)c1	6%	3.2	-10	15
39	CC(C)C(=O)Nc1cc(S(=O)(=O)N2CCOCC2)ccc1N1CCCCC1	-6%	/	2	/
40	Cc1ccc2[nH]c(CNC(=O)c3ccccc3F)cc2c1	/	2.0	-6	-3
41	CCN1C(=O)N[C@H](c2ccccc2)C(C(C)=O)=C1C	/	-1.9	5	-3
42	CCCN(CC(=O)Nc1ccccc1OC)C(=O)c1cc(-c2ccccc2)nn1-c1ccccc1	1%	/	18	/
43	Cc1ccnc(NC(=O)COc2c(C)cc(C)cc2[N+](=O)[O-])c1	4%	-2.2	4	-2
44	Cc1cccc(-c2noc(CN(C(=O)C(c3ccccc3)c3ccccc3)C(C)C)n2)c1	-3%	?	0	3
45	Fc1cnc(Cl)nc1NC1CCCCC1	-12%	0.4	-1	6

no.	HNF4A DNA FP	ALR H2O2 inh	LANA-H2A inh
31	-1.7	/	-4.6
32	0.4	-7	-0.4
33	0.0	-6	-2.4
34	4.3	-2	3.0
35	1.7	-19	0.6
36	0.2	-7	4.0
37	3.5	-1	3.5
38	-0.3	-4	1.5
39	4.6	-2	-1.6
40	1.6	-9	3.8
41	0.1	0	-6.2
42	4.0	-5	49*
43	3.0	1	-0.4
44	3.4	-12	4.9
45	4.2	-5	-5.2

Further records follow.
no.	Molecule	Vif TR-FRET	RanGTP-Imp inh	Beta2AR agonist	Calb FLC
46	CC1CN(C2CCCCC2)C(=O)NC1=O (stereo not given)	-5%	/	-6	/
47	COc1ccc(S(=O)(=O)NCc2ccc(C(=O)O)cc2)cc1	9%	-3.7	4	-16
48	CCOc1ccc(OCC(=O)OCC(=O)NCC2CCCO2)cc1 (stereo not given)	/	/	-12	/
49	Cc1ccc(-n2c(=O)cc(N3CC(C)CC(C)C3)[nH]c2=O)cc1 (stereo not given)	-1%	9.6	-2	-5
50	COc1cccc(N(C(=O)c2snc(C(N)=O)c2N)C(C(=O)NCC2CCCO2)c2ccc(F)cc2)c1 (stereo not given)	/	0.2	-1	30
51	CC(C)(Cc1ccc(O)cc1)NC(=O)CC(=O)N=Nc1c(O)[nH]c2cc(Br)ccc12	8%	1.6	-2	8
52	COC(=O)c1cc2c(s1)-c1ccccc1OC2	1%	?	8	10
53	Cc1nn(-c2ccc(Br)cc2)c(=O)c2ccccc12	/	-0.6	0	21
54	COc1ccc(/C=C(\C#N)c2cc(OC)c(OC)cc2[N+](=O)[O-])cc1	2%	-1.2	-5	-2
55	Cc1cc(-c2n[nH]c(=S)n2-c2ccccc2C)cs1	3%	7.3	7	6
56	CC(OC(=O)/C=C/c1ccco1)C(=O)NC1CCCCC1C (stereo not given)	1%	/	-3	/
57	CC(=O)c1ccc(N2CCN(C(=O)CCS(=O)(=O)c3ccc4c(c3)NC(=O)CS4)CC2)cc1	2%	11	-1	-3
58	CCn1c(SCC(=O)C(C)(C)C)nnc1-c1ccccn1	10%	-0.7	-1	6
59	CCC(CC)NC(=O)COC(=O)CCC(=O)c1cccs1	/	?	6	7
60	CC(=O)N1c2ccc(S(=O)(=O)N(C)C3CCCCC3)cc2CC1C (stereo not given)	-3%	2.6	-2	-4

no.	HNF4A DNA FP	ALR H2O2 inh	LANA-H2A inh
46	-2.2	/	/
47	-2.7	-6	-0.9
48	-4.1	13	3.4
49	2.7	3	1.7
50	4.5	-1	2.4
51	-1.3	19	-4.5
52	-1.4	0	-0.3
53	0.2	-1	-1.0
54	-3.2	-22	-6.1
55	-3.3	17	2.8
56	2.4	0	-6.5
57	4.1	0	-0.1
58	1.9	9	0.6
59	-0.7	-3	-3.0
60	-6.4	-12	-2.2

The list continues.
no.	Molecule	Vif TR-FRET	RanGTP-Imp inh	Beta2AR agonist	Calb FLC
61	CCC(C)OC(=O)n1ccc(C(=O)Nc2nccs2)n1 (stereo not given)	?	?	2	5
62	O=C(NC1CCCCCC1)c1cc2n(n1)C(C(F)(F)F)CC(c1ccco1)N2 (stereo not given)	-6%	7.2	3	3
63	O=c1sc(Nc2ccccc2)nc2ccsc12	2%	-0.4	-5	-37
64	CN=C1CC(C)(C)CC(=O)/C1=C(/O)CCC(=O)NC	16%	-9.4	5	-2
65	Cc1cc(NC(=O)CSc2nc(C(C)(C)C)nc3ccccc23)no1	-63%	-1.5	0	-30

no.	HNF4A DNA FP	ALR H2O2 inh	LANA-H2A inh
61	-0.4	24	7.4
62	-8.0	-5	9.8
63	-3.1	-4	4.3
64	3.2	6	0.3
65	-4.0	-10	-0.6

Screening data from PubChem BioAssay.

Rows were taken by chance; about 6.3% have a hit in one of these screens.
